# Compound activity deposited in PubChem BioAssay by National Center for Advancing Translational Sciences (NCATS).
# GLA inh pH 4.5: blocks human alpha-galactosidase A at pH 4.5. P06280. purified enzyme, 4-MU-alpha-Gal fluorescence, pH 4.5. activity change, negative = inhibition, % at 105 µM. 230,000 tested, under 10 active; inconclusive = small, poorly fitted or top-dose-only inhibition, or a rising curve; inactive = flat fitted curve, though single readings scatter; no compound was filed as active;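 also: 0% = full activity with enzyme and -100% = basal without enzyme; dose as in the result columns while the protocol names 77 µM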
# Target sequence (P06280 whole entry, looked up): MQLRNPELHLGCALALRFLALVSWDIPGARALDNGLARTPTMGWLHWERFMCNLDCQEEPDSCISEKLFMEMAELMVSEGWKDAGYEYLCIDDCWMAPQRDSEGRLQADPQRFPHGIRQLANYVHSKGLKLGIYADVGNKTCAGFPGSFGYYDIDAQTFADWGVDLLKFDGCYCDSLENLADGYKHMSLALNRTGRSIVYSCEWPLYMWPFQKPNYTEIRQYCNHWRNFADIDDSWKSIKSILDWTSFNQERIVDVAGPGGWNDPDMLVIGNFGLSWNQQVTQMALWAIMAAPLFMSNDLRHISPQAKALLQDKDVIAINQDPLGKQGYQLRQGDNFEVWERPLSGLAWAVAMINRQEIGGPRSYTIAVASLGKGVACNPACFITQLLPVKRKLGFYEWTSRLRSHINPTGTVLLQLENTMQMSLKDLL
# Rango release inh: prevents RanGTP from dissociating the Rango-importin beta complex; Potency, µM (series often up to 46.1 µM), for the others: at the top dose activity change, negative = inhibition; Biochemical FRET Rango-importin beta, RanGTP-induced dissociation; hit rate 0.071% among 340,000; AID 540253; active means falling FRET ratio curve, often poorly fitted, with flat reads before Ran was added; inconclusive means other falling curves, or compound fluorescence or quenching; inactive means flat or rising ratio curve;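 also: potency is read from the fitted curve at half-maximal effect; % of control where 0% means no effect; nearly all actives have a fitted effect of over 45% in size; -100% = wells without RanGTP and RCC1; the record marks most hits as doubtful in a second field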
#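 Rango/importin beta premix (0.1/0.25 uM final), PBS + 1 mM DTT + 0.02% Tween-20 + 0.1% BSA; cpd 5 min RT; FRET pre-read; + RanGTP-RCC1 (0.6 uM Ran, 2 mM GTP, 0.2 uM RCC1); 45 min RT; FRET post-read, ex 430, em 486/530 nm.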
# miR-21 reporter: raises the signal of a miR-21 reporter. HeLa miR-21 FLuc reporter, luciferase, 48 h. Potency, µM (highest dose often 38.3 µM), without a hit: at the top dose reporter change, positive = more light. 340,000 tested, under 10 active. AID 2288; active = well fitted rising curve with a large enough effect; inconclusive = small, poorly fitted or top-dose-only effect; inactive = no such curve, though single readings can be large or run the other way;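 also: % of control where 0% means no effect; miR-21 action dims this reporter so a rising signal means less miR-21 action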
#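 HeLa miR-21-FLuc reporter line, endogenous miR-21; 2000 cells/well in DMEM/10% FBS; compound titration up to ~40uM final, 48 h, 37 degree Celsius; luciferase detection reagent, 15 min lysis, CCD luminescence.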
# Rango complex inh: prevents formation of the Rango-importin beta complex; Q14974; Rango CFP/YFP FRET sensor + importin beta, 45 min; Potency, µM (top dose mostly 92.2 µM), for inactives: at the top dose inhibition of complex formation; hit rate 0.031% among 340,000; active = rising FRET ratio curve, often small or poorly fitted; inconclusive = mostly compound fluorescence or quenching in the first reads; inactive = flat curves in all reads;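 also: potency is read from the fitted curve at half-maximal effect; 0% = DMSO wells and 100% = buffer wells lacking importin beta; nearly all actives have a fitted effect of over 15% in size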
#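 Inhibition scored from the CFP 486 nm/YFP 530 nm FRET ratio 45 min after adding 0.125 microM importin beta to 50 nM Rango biosensor preincubated 5 min with compound (room temperature, PBS with DTT, Tween-20, BSA). No-importin wells as positive control.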
# The depositor's hits bear a star; u = inconclusive; x = not tested or not shown.
SMILES,GLA inh pH 4.5,Rango release inh,miR-21 reporter,Rango complex inh
Cc1ccc(O)c(-c2cc(C(=O)Nc3ccc(S(=O)(=O)Nc4nc(C)cc(C)n4)cc3)[nH]n2)c1,-1,22%,-15%,0.1%
CCCn1cc(SCC(N)=O)c2ccccc21,4,-16%,-5%,1.9%
CC12CC3CC(C)(C1)CC(C(=O)NCc1ccco1)(C3)C2,7,4%,-6%,-0.1%
CC1CCN(C(=O)CCNC(=O)c2ccccc2)CC1,x,16%,-36%,4.9%
CC(=O)n1cc([C@@H]2C=C(C(=O)N3CCN(Cc4ccccc4)CC3)O[C@H](OCc3ccc(CO)cc3)C2)c2ccccc21,-5,-13%,23%,u
COCCCN(C(=O)c1ccccc1)c1nc(-c2ccc(OC)cc2)cs1,x,1%,-6%,-4.5%
O=C(NCc1nnnn1-c1cccc(F)c1)c1ccc(S(=O)(=O)N2CCOCC2)cc1,x,-7%,x,0.1%
N#Cc1sc2nc(C3CC3)cc(-c3ccccc3)c2c1N,-9,u,-13%,u
COc1ccccc1C(=O)Nc1nnc(S(=O)(=O)N2CCC(C)CC2)s1,x,-20%,-21%,1.1%
Cc1ccc(-c2nc(CS(=O)CC(=O)NCc3ccccc3)c(C)o2)cc1 (stereo not drawn),0,8%,-1%,0.8%
CCOC(=O)[C@@H]1[C@H]2COc3ccccc3[C@H]2N2C(=O)N(c3ccc(OC)cc3)C(=O)[C@]12C,x,15%,-3%,u
CCOC(=O)c1c(C)[nH]c(C)c1S(=O)(=O)N(C)CC(=O)NCc1ccc(F)cc1,x,u,-3%,-0.6%
Nn1c(SCC(=O)Nc2ccccc2Br)nnc1-c1ccco1,x,-13%,-3%,u
CCCNc1c(NS(=O)(=O)c2cccc(C#N)c2)c(=O)oc2ccccc12,x,15%,-3%,0.8%
COc1c(O)ccc2cnn(-c3ccccc3C)c(=O)c12,-9,-12%,-31%,-1.0%
CC(NC(=O)C(Cc1ccccc1)NC(=O)c1ccccc1)C(=O)O (stereo not drawn),4,-20%,1%,-1.4%
O=C(NCCOc1ccc(Cl)cc1)c1ccc2ccccc2n1,1,2%,-31%,1.8%
CCOC(=O)N1CCC(Nc2c([N+](=O)[O-])cc(C(=O)O)cc2[N+](=O)[O-])CC1,x,0%,5%,2.3%
O=C(c1ccccc1)N1CCN(S(=O)(=O)N2CCCCC2)CC1,7,5%,-2%,0.7%
CN(Cc1cccs1)C(=O)Cn1cnc2ccccc2c1=O,3,1%,-8%,0.0%
CCc1cccc(C)c1NC(=O)COC(=O)Cc1ccsc1,9,9%,-1%,-2.6%
O=C1CCN(Cc2ccccc2)CCN1CCSc1ccccc1,x,6%,-54%,0.3%
O=C(COC(=O)c1ccc2[nH]c3c(c2c1)CCCC3)Nc1ccc(Cl)cc1Cl,5,u,-9%,u
COC(=O)Cc1cc(=O)[nH]c(/N=C(\N)Nc2ccccc2)n1,1,-8%,-6%,-1.7%
CC(C)CCNC(=O)COc1ccc2c3c(c(=O)oc2c1)CCC3,3,-2%,0%,-1.2%
SMILES,GLA inh pH 4.5,Rango release inh,miR-21 reporter,Rango complex inh
CCOc1ccc(NC(=O)CN(C)C(=O)CC2OC(=O)c3ccccc32)cc1OCC (stereo not drawn),x,-1%,x,-0.7%
CC(C)N1CCc2c(sc(NC(=O)CCS(=O)(=O)c3ccccc3)c2C#N)C1,x,u,2%,u
CCCCC(=O)Nc1cccc(-c2nnc(-c3ccccc3)o2)c1,-5,-11%,-13%,6.6%
CCN1CCc2nc(NC(=O)c3ccc(S(=O)(=O)N(C)C)cc3)sc2C1,-14,u,-23%,u
COc1ccc(NS(=O)(=O)c2ccc3c(c2)OCCO3)cc1OC,x,-7%,18%,-2.8%
CCC(Sc1ccc2nnc(-c3cccnc3)n2n1)C(=O)O (stereo not drawn),2,-9%,0%,0.4%
Cc1cc2ncn(/N=C/c3ccc4c(c3)OCO4)c2cc1C,-9,-1%,-27%,-2.8%
CC(=O)Nc1ccc(Br)c2ccccc12,-5,-17%,0%,1.1%
CCc1ccc(OCC(=O)NC(=S)Nc2ccc(S(=O)(=O)NC3CCCCC3)cc2)cc1,-2,-2%,9%,-4.1%
CC(=O)Oc1ccc(-c2cccc(C(=O)O)c2)cc1,-21,-14%,-9%,3.7%
CN(C)/C=C(/C(=O)c1ccc(Cl)cc1)n1cncn1,12,1%,0%,0.8%
CCOC(=O)c1c(NC(=O)c2c(C(=O)O)cccc2[N+](=O)[O-])sc2c1CCCC2,x,-3%,-1%,7.2%
COC(=O)c1ccc(C(=O)OC)c(NC(=O)CSc2n[nH]c(N)n2)c1,x,10%,x,4.5%
CC(=O)Nc1ccc(NC(=O)COc2ccc(S(=O)(=O)N3CCCC3)cc2)cc1,x,22%,3%,0.6%
COc1ccc(CNc2ncc(-c3ccccc3)n2C)c2ccccc12,x,2%,9%,3.5%
O=C(COC(=O)C1Cc2ccccc2CN1C(=O)c1ccccc1)Nc1ccc(SC(F)F)cc1 (stereo not drawn),-2,7%,-6%,-0.2%
O=C(CSc1nnc(-c2ccncc2)n1C1CCCCC1)Nc1cccc(O)c1,-3,1%,-8%,-2.9%
C[N+]1(C2CCC3CCCC2C3O)CCCC1 (stereo not drawn),-1,-3%,-8%,-1.5%
Cc1cccc(COC(=O)CCCNC(=O)c2ccc(Cl)cc2)c1,x,7%,x,3.9%
CC(=O)c1ccc(NC(=O)Nc2cccc3ccccc23)cc1,x,0%,-53%,1.3%
Cc1noc(C)c1C(=O)N(CC(=O)Nc1ccc(Cl)c(C(F)(F)F)c1)Cc1ccco1,x,0%,x,-1.1%
Cc1ccc2c(C)c(C(=O)N(C)C(C)c3ccncn3)oc2c1C (stereo not drawn),x,-16%,-60%,2.4%
COc1ccc(/C=C2/S/C(=N/N=C3\CC4CCC3(C)C4(C)C)NC2=O)cc1 (stereo not drawn),-2,1%,-2%,-2.5%
O=C(COC(=O)C1CCN(S(=O)(=O)c2cccs2)CC1)Nc1ccc(F)c(F)c1F,x,-10%,x,-3.5%
CCOC(=O)C1CCCN(C(=S)Nc2ccc(C)cc2C)C1 (stereo not drawn),-4,-10%,-3%,-3.4%
SMILES,GLA inh pH 4.5,Rango release inh,miR-21 reporter,Rango complex inh
CC1CCCN(C(=O)COC(=O)C2CCN(S(=O)(=O)c3ccc(Cl)c(C(F)(F)F)c3)CC2)C1 (stereo not drawn),x,2%,x,0.9%
O=C(c1cc(S(=O)(=O)N2CCOCC2)ccc1F)N1CCCc2ccccc21,4,-4%,-7%,0.4%
O=C(CS(=O)(=O)c1ccccc1)Nc1ccc(N2CCOCC2)cc1,-9,-8%,-3%,1.0%
CN(C)CCNC(=O)c1sc2nc(-c3ccccc3)cc(C(F)(F)F)c2c1N,x,u,-3%,u
CCN(CC)CCNC(=O)c1ccc(NC(=O)c2cc(S(=O)(=O)N3CCCCC3)ccc2C)cc1,x,8%,x,u
Nc1cc(N)nc(SCc2nnnn2-c2ccc(Cl)cc2)n1,-9,u,4%,0.0%
COc1ccc(NC(=O)CN2CCC(C(=O)c3ccc(C)cc3)CC2)c(OC)c1,x,28%,-9%,0.0%
CCN(CC)c1ccc(/C=N/NC(=S)NCc2ccccc2)c(O)c1,-2,u,28%,u
Nc1nc(N(Cc2ccccc2)Cc2ccccc2)nc(C(F)(F)F)n1,x,-2%,x,0.0%
CN(C)c1ccccc1C(=O)c1ccccc1N(C)C,-6,u,-13%,u
O=C(COc1ccc(Br)cc1)Nc1ccc2c(c1)C(=O)NC2=O,6,-8%,-14%,-1.1%
CCOC(=O)CSc1nnc2c(n1)C1(C)CCC2C1(C)C (stereo not drawn),0,-13%,1%,-1.0%
Cc1cc(C)c(NC(=O)CSCc2c(C)noc2C)c(C)c1,x,-4%,x,-0.4%
Cc1ccccc1-c1nc(CN2CCC(C(=O)N3CCC(C(N)=O)CC3)CC2)c(C)o1,0,-4%,-3%,2.1%
CCN(c1ccccc1)S(=O)(=O)c1cc(C(=O)NCc2ccccn2)ccc1C,x,-1%,x,0.1%
O=C(Nc1cccc(F)c1)NC1CCCc2ccccc21 (stereo not drawn),x,-5%,4%,-0.2%
CC1COc2ccccc2N1C(=O)c1cccnc1Cl (stereo not drawn),-3,1%,-2%,-3.6%
CC1=CC(C)(C)Nc2ccc(OC(=O)CN3C(=O)c4ccccc4C3=O)cc21,0,-10%,u,-4.3%
COC(=O)c1cc(S(=O)(=O)NCC(C)c2ccccc2)cn1C (stereo not drawn),x,1%,0%,-3.7%
CCc1ccc(C(O)(C(C)C)C(CN2CCOCC2)c2ccccc2)cc1 (stereo not drawn),x,-16%,21%,1.7%
FC(F)(F)c1ccccc1NC(=S)NN=C1CCCCCC1,-4,3%,12%,-5.0%
ClCCN1C2=NCCCN2c2ccccc21,-5,6%,0%,0.3%
C=CCn1cc(Cl)cc(C(=O)Nc2ccccc2)c1=O,x,-4%,-28%,-0.8%
CCCCn1c(N)c(N(CCOC)C(=O)COC(=O)COc2c(C)cc(C)cc2C)c(=O)[nH]c1=O,x,-6%,x,0.3%
Cc1ccccc1NC(=O)c1ccc(S(=O)(=O)N2CCCC2)cc1,x,11%,3%,6.2%
SMILES,GLA inh pH 4.5,Rango release inh,miR-21 reporter,Rango complex inh
Cc1cccc(OCC(=O)Nc2ccccc2C(F)(F)F)c1,-7,29%,-32%,-4.2%
CN(C)C(CNc1ncnc2sccc12)c1ccccc1 (stereo not drawn),4,-21%,-8%,u
O=CN1CCN(C(=O)COc2ccc(Cl)cc2Br)CC1,-11,-9%,-2%,0.2%
CCCC(=O)Nc1cc(S(=O)(=O)N2CCCCC2)ccc1N1CCOCC1,x,2%,x,-0.3%
COCCN(C(=O)CSc1nnc(-c2ccccc2F)n1N)c1c(N)n(Cc2ccccc2)c(=O)[nH]c1=O,x,-9%,-5%,3.2%
Oc1sc(C=Nc2ccccc2)c2ccccc12,-16,u,-39%,u
COCC1CCN(C(=O)c2cc(COc3ccccc3SC)on2)C1 (stereo not drawn),x,0%,-8%,-1.3%
COc1cc(CNCc2ccccc2)cc(Cl)c1OC,0,19%,-9%,2.8%
O=C(c1ccc(COc2ccc3c(c2)CCC3)o1)N1CCN(c2ccccc2)CC1,x,24%,x,-0.4%
CCCCn1c(N)c(N(CC(C)C)C(=O)c2cccc(S(=O)(=O)N(CC)c3ccccc3)c2)c(=O)[nH]c1=O,x,0%,x,-2.7%
COc1ccc(NC(=O)c2ccccc2Oc2ccccc2)c(OC)c1,x,-11%,-2%,-0.5%
COc1ccccc1NC(=O)c1sc2nc(N3CCOCC3)c3c(c2c1N)CCCC3,x,-12%,-12%,-1.7%
Cc1noc(C)c1C(=O)OCC(=O)N(C)C1CCS(=O)(=O)C1 (stereo not drawn),1,-3%,-6%,3.0%
NCCc1c(-c2ccccc2)n(-c2ccccc2)c2ccccc12,-4,4%,u,4.4%
CC(=O)NC(CC(=O)N1CCN(C(C)=O)CC1)c1ccccc1 (stereo not drawn),x,1%,1%,0.4%
CN(CC(=O)NCc1ccccn1)S(=O)(=O)c1ccc2ccccc2c1,-1,-1%,-5%,0.1%
CC(C)Nc1cc(C(C)(C)C)nc2c(-c3ccccc3)cnn12,0,-5%,-91%,1.2%
Cc1ccc(C2=C/C(=C/c3cccs3)C(=O)O2)cc1,4,18%,-26%,5.0%
Cn1cnnc1SCC(=O)Nc1cc(S(=O)(=O)N2CCCCCC2)ccc1Cl,3,1%,-10%,3.7%

# 5 of the entries above in order of the miR-21 reporter value, high to low.
SMILES,GLA inh pH 4.5,Rango release inh,miR-21 reporter,Rango complex inh
COc1ccc(NC(=O)c2ccccc2Oc2ccccc2)c(OC)c1,x,-11%,-2%,-0.5%
CN(C)C(CNc1ncnc2sccc12)c1ccccc1 (stereo not drawn),4,-21%,-8%,u
COc1cc(CNCc2ccccc2)cc(Cl)c1OC,0,19%,-9%,2.8%
COc1ccccc1NC(=O)c1sc2nc(N3CCOCC3)c3c(c2c1N)CCCC3,x,-12%,-12%,-1.7%
Cc1ccc(C2=C/C(=C/c3cccs3)C(=O)O2)cc1,4,18%,-26%,5.0%

# An excerpt (hit frequency here may not be typical).
